Screens from PubChem.
NPYLR7 agonist = agonists of mosquito NPYLR7 receptor, primary screen, cell-based, Aedes aegypti, calcium fluorescence, mosquito biting behavior; Aedes aegypti neuropeptide Y-like receptor 7 (NPYLR7); AID 1259423, 2018; activation, % at 10 µM; 270,000 compounds, 0.15% hits; HEK293T NPYLR7/Galpha15, GCaMP6s calcium fluorescence; in the data active means activation above about 40%;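 further: 0% = vehicle and 100% = reference agonist at the receptor; some compounds past the cut are filed as inactive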
NPYLR7 agonist max-min = recorded beside NPYLR7 agonist, whose call it bears; activation, %; measured here: Max-Min RFU normalised activation; some inactives read as strong as hits;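 span of the calcium signal over five minutes; 0% = vehicle and 100% = native peptide agonist; compound fluorescence can raise it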
Numbers without * were called inactive; & = joins results of further samples.

canonical_smiles,NPYLR7 agonist,NPYLR7 agonist max-min
Cn1ccnc1-c1ccc(N2C[C@@H]3C[C@@H](C2)c2cccc(=O)n2C3)nn1,9,3
COc1ccc(F)c(-c2ccc3c(c2)CNCC3)c1,5,3
Cc1ccc(C)c(Cn2cccc(C(=O)Nc3nccs3)c2=O)c1,14,11
COCC1(C(=O)N2C[C@H]3CC[C@@H](C2)N3)CCC1,0,0
CC(C)C(NC(=O)N1CCC2CCC(C1)N2C)c1ccccn1 (stereo not given),7,5
CC12CCC(=O)C=C1CCC1C2CCC2(C)C1CCC2(O)CC#N (stereo not given),6,7
Cc1cc(C)c(CNc2cnc3ccccc3n2)c(=O)[nH]1,13,13
Clc1nc(N2CCNCC2)c2[nH]cnc2n1,-5,-2
C[C@]12Cc3cn[nH]c3C[C@@H]1CC[C@@H]1[C@@H]2CC[C@@]2(C)[C@H]1CC[C@]2(C)O,0&-21,-5&-31
CC(C)c1c(C(=O)O)cnn1C(C)(C)C,-7,-17
CC(C(=O)Nc1ccc(C#N)cc1)N1CC=C(c2ccccc2)CC1 (stereo not given),-10,-10
N=C1C(NO)=NC(c2ccccc2)N1O (stereo not given),-13,-20
C[N+]12CCC(CC1)C(OC(=O)C(O)(c1ccccc1)c1ccccc1)C2 (stereo not given),-5&-5&2,-9&-9&-4
C#C[C@H]1CN2CC[C@H]1C[C@@H]2CNC(=S)Nc1ccc(F)cc1,-5,-8
COC(=O)CP(=O)(O)O,7,5
OC(CNC1CC1)c1ccccc1 (stereo not given),-2,-5
O=C1CCCN1CC#CCN1CCCC1,-9&6,-17&-55
O=C1NCC(=O)N2CCN(Cc3cnc(-c4ccco4)nc3)CC12 (stereo not given),-2,-1
Cc1cc([N+](=O)[O-])c(Cl)cc1NC(=O)c1ccc(C(C)C)cc1,5,10
CCC(C)n1[nH]c(=O)c2c1NC(=O)CSC2c1ccc(Cl)cc1Cl (stereo not given),16,6
NC(=O)CN=Cc1c(O)[nH]c(=O)[nH]c1=O,5,6
COc1cc(C=NNc2ccccn2)ccc1OP(=S)(c1ccncc1)c1ccncc1,2,1
CCSc1nc(NCC(C)C)c2cnn(CCN)c2n1,-5,-7
Cc1ccccc1OCC(=O)N1CCN(Cc2nnnn2-c2ccc(Cl)cc2)CC1,-2,-1
COCCN(CCOC)P1(=O)C=C(c2ccccc2)SC(c2ccccc2)=C1,2,1
Nc1ccc2c(c1)Cc1ccccc1-2,3,4
C[C@]12N[C@H](Cc3ccccc31)c1ccccc12,-14&1&2,-18&0&-12
O=C(c1cccs1)C1CCCN(Cc2cc3n(n2)CCNC3)C1 (stereo not given),4,0
Fc1ccc(C(OCCN2CCN(CC3CCC=CO3)CC2)c2ccccc2)cc1F (stereo not given),16,10
CN1C[C@@H](CS(=O)(=O)N(C)C)C[C@@H]2c3cccc4c3c(cn4C)C[C@H]21,5,-38
CCN(CC)P1(=S)C2=C(N3CCCCC3)CC(C)(C)CC2=NN1c1ccccc1 (stereo not given),2,2
COc1ccc(C)cc1CCNCc1ccccc1OC(F)F,-1,-4
C=Cn1ccnc1P(O)(=S)c1nc(C)c(CCOC(C)=O)s1 (stereo not given),-7,-13
CN1CCCC(c2n[nH]c(=O)n2C2CCCCC2)C1 (stereo not given),0,2
O=C1CCC[C@@H]2[C@H]3CCCN4CCC[C@@H](CN12)[C@@H]34,5,5
CC(C)(OP(N)(=O)Oc1ccccc1)C(F)(F)C(F)(F)C(F)(F)C(F)F (stereo not given),4,3
CNC(C)Cc1ccc(OC)cc1 (stereo not given),24,12
c1ccc(N2CCNCC2)c(-c2cc3ccccc3o2)c1,1,4
Cc1nc(-c2ccc(N(C)C)cc2)cc([C@H]2CN3CC[C@H]2C[C@@H]3COC(=O)Nc2ccc(F)cc2F)n1,2,-4
O=c1ccc2cc(O[C@@H]3O[C@H](CO)[C@@H](O)[C@H](O)[C@H]3O)c(O)cc2o1,-7,-7
CN(C)P(=O)(Nc1cccc(C(F)(F)F)c1)N(C)C,9,19
COc1cc(CN2CCCC(C(=O)c3ccccc3SC)C2)ccc1F (stereo not given),3,-2
CC(C)=CC(=O)N[C@H]1C[C@H]2CN(C)CCN2C1,21,8
O=C(Nc1ccc2[nH]cc(CCN3CCOCC3)c2c1)c1cncc(Br)c1,27,39
CCN1CCN(Cc2csc3c2CCCC3)CC1,0,0
Cc1ccc(P(=S)(Nc2ccc([N+](=O)[O-])cc2)Nc2ccc([N+](=O)[O-])cc2)o1,8,1
CC[C@@H](C)C(=O)O[C@H]1[C@H](O)[C@H]2[C@@H](CN3C[C@@H](C)CC[C@H]3[C@@]2(C)O)C2C[C@]34O[C@@]5(O)[C@@H](OC(=O)[C@](C)(O)CC)CC[C@@]3(C)[C@@H]5[C@@H](OC(C)=O)[C@@H](OC(C)=O)[C@H]4[C@@]21O (stereo not given in full),-4,-7
NCCCOC[C@@H]1CCCN2CCCCC12 (stereo not given in full),0,5
COc1ccc(C2SCC(=O)Nc3c2c(=O)[nH]n3C(C)C)cc1OC (stereo not given),3,-1
CCOC(=O)[C@H]1CN(C(=O)NC2CCCC2)[C@]2(C)C(=O)Nc3ccccc3[C@H]12,25,24
CNC(=O)N1CCN(S(=O)(=O)c2ccc(C#N)c(Cl)c2)CC1,-3,65
CC(Cc1c(F)cccc1F)NC(=O)CSCC(N)=O (stereo not given),3,1
N#Cc1ccc(OCC(=O)N2CCN(Cc3ccco3)CC2)cc1,-2,76
c1cc(-c2nccn2CCc2cnc[nH]2)ccn1,7,5
Cc1ccnc(CC(C)N(C)Cc2cn[nH]c2-c2ccc(F)cc2)c1 (stereo not given),-2,-8
CC1(C)CC(=O)CC(=NNP(=S)(c2ccccc2)c2ccccc2)C1,3,1
COc1cccc([C@@H]2CCN(Cc3ncc[nH]3)C[C@H]2O)c1,3,3
O=C(c1ccccc1)N1C[C@@H]2C[C@H](C1)c1c(-c3cccnc3)ccc(=O)n1C2,-8,-14
CCCCN1C2=[N+](CCCS2)CC1(O)c1ccc(OC)cc1 (stereo not given),1,-1
CN1C(=O)NC2CNCCC21 (stereo not given),2,-1

Entries of single compounds from above. Order of values: NPYLR7 agonist, NPYLR7 agonist max-min
CNC(=O)N1CCN(S(=O)(=O)c2ccc(C#N)c(Cl)c2)CC1 as listed: -3, 65
N#Cc1ccc(OCC(=O)N2CCN(Cc3ccco3)CC2)cc1 as listed: -2, 76
CN1C(=O)NC2CNCCC21 (stereo not given) as listed: 2, -1
CCCCN1C2=[N+](CCCS2)CC1(O)c1ccc(OC)cc1 (stereo not given) as listed: 1, -1
CC[C@@H](C)C(=O)O[C@H]1[C@H](O)[C@H]2[C@@H](CN3C[C@@H](C)CC[C@H]3[C@@]2(C)O)C2C[C@]34O[C@@]5(O)[C@@H](OC(=O)[C@](C)(O)CC)CC[C@@]3(C)[C@@H]5[C@@H](OC(C)=O)[C@@H](OC(C)=O)[C@H]4[C@@]21O (stereo not given in full) as listed: -4, -7

The main list resumes with the 5 entries that preceded the break.
canonical_smiles,NPYLR7 agonist,NPYLR7 agonist max-min
CC1(C)CC(=O)CC(=NNP(=S)(c2ccccc2)c2ccccc2)C1,3,1
COc1cccc([C@@H]2CCN(Cc3ncc[nH]3)C[C@H]2O)c1,3,3
O=C(c1ccccc1)N1C[C@@H]2C[C@H](C1)c1c(-c3cccnc3)ccc(=O)n1C2,-8,-14
CCCCN1C2=[N+](CCCS2)CC1(O)c1ccc(OC)cc1 (stereo not given),1,-1
CN1C(=O)NC2CNCCC21 (stereo not given),2,-1
N#Cc1ccc(S(=O)(=O)Nc2ccccc2-n2cnnn2)cc1Cl,-2,-3
CC12CN3CC(C)(CN(C1)C3c1cccs1)C2 (stereo not given),-2,-3
CC(C)Nc1cc(N2CCN(C(C)C)CC2)ncn1,2,-7
CC[N+]1(C)CCCC(OC(=O)C(O)(c2ccccc2)c2ccccc2)C1 (stereo not given),-11&-1&3,-14&-7&3
CN1CCCN(C(=O)Cc2cccc(NC3OC(C4COC(C)(C)O4)[C@@H]4OC(C)(C)O[C@H]34)c2)CC1 (stereo not given in full),-6,-11
COC(=O)C(=O)N1CC2(C)CNCC(C)(C1)C2=O,7,11
CN(C)C(=O)CCCS(=O)(=O)C(c1ccc(F)cc1)c1ccc(F)cc1,13,10
CN(C)C(=O)Oc1ccc2c(c1)O/C(=C\C=C\c1ccccc1)C2=O,0,-3
O=C(c1ccncc1)N1C[C@@H]2C[C@H](C1)c1ccc(-c3ccc(Cl)cc3)c(=O)n1C2,-8,-13
COc1cccc(C(=O)C2CCCN(Cc3nnc(C4CC4)o3)C2)c1 (stereo not given),10,4
CN1C2CCC1CC(OC(c1ccccc1)c1ccccc1N)C2 (stereo not given),5&-4,-13&-1
CN(C)c1ccc(C=C2C(=O)NC(=O)NC2=O)cc1[N+](=O)[O-],4,1
CCOP(=S)(OCC)Oc1nc(Cl)c(Cl)cc1Cl,-9,-11
O=C(c1cc(CN2CCOCC2)on1)N1CCN2CCCC2C1 (stereo not given),7,0
CC12CN3CC(C)(CN(C1)P3(=O)Oc1ccccc1)C2=O (stereo not given),2,1
Oc1ccc2c3c1O[C@H]1[C@@H](O)CC[C@@]4(O)C(C2)N(CC2CCC2)CCC314 (stereo not given in full),4,-48
CNc1ncc(C(=O)N2CCN3CCN(C)C(=O)C3C2)cn1 (stereo not given),8,5
O=C(c1cn(-c2ccccc2)nn1)N1C[C@H]2C[C@@H](C1)c1cccc(=O)n1C2,10,12
CCN(C)CCc1c[nH]c2ccc(NC(=O)c3ccc(C#N)cc3)cc12,6,4
Cc1ccc(P(=S)(c2ccc(C)o2)N2CCOCC2)o1,-4&0,-6&0
CN1CCCCC1c1ccc(-c2cccnc2)nc1 (stereo not given),-6&3,-7&1
S=P1(N2CCOCC2)N=C(SCc2ccccc2)c2c(nc3n2CCC3)N1 (stereo not given),2,-2
O=C(c1ccc(Cl)c(Cl)c1)C12CN3CN(CN(C3)C1)C2,-1,-2
Cc1ccc(Cn2cccc(C(=O)Nc3cc(Cl)ccc3C#N)c2=O)cc1,11,6
O=C(Cc1ccsc1)N1CCN(Cc2ccc(-c3noc(-c4cccnc4)n3)cc2)CC1,7,11
Cc1cc(CC(=O)N2[C@H]3CCNC[C@@H]2CC3)on1,12,9
Cc1sc2ncn(CCS(=O)(=O)F)c(=O)c2c1C,2,-1
CN(CCc1ccccn1)CCC1CCCCC1,-4,-11
Cc1ccc(N2C(=O)NC(=O)/C(=C\C=C\c3ccccc3)C2=O)cc1,8,3
Cc1nc(C(F)(F)F)nc(N2CCOC3(CNCCOC3)C2)c1C (stereo not given),19,14

The list is partial. The share of hits here may be higher or lower than overall.
